DUX4 inh – inhibitors of DUX4-driven ZSCAN4 reporter expression, primary screen, 293T cells, Gaussia and Italica luciferase; activity change, negative = inhibition, % (test concentration not listed); 0.8% of 37,000 active; 293T-iDUX4 ZSCAN4-Gaussia luciferase reporter, 24 h; stronger effect = lower value;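 active means -10% or lower and over 25 points stronger than a control reporter; inconclusive means -10% or lower with a smaller gap; inactive means above -10%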;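 further: 0% = median of neutral control wells and -100% = median of positive control wells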
DUX4 inh difference – recorded beside DUX4 inh, whose call it bears; Gaussia minus Italica difference, %; measured here: selective DUX4 reporter inhibition;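 worked out from the two reporters; negative = selective loss of the DUX4 reporter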
DUX4 inh control – also measured in DUX4 inh; calls as there; activity change, negative = inhibition, %; measured here: Italica tet-on control reporter;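 0 = neutral control and -100 = positive control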
The depositor's hits bear a star; ? = inconclusive; / = no result given.

SMILES	DUX4 inh	DUX4 inh difference	DUX4 inh control
O=C(CCN1CCCCC1)N[C@@H]1CC[C@H](CCn2cc(-c3cccc(F)c3)nn2)O[C@@H]1CO	-2	2	-4.7
Cc1ccccc1-c1ccc([C@@H]2[C@@H](CO)N3CCCCN(S(=O)(=O)Cc4ccccc4)C[C@H]23)cc1	-45*	-37*	-8.4*
C[C@@H]1CN([C@@H](C)CO)C(=O)CCCn2cc(nn2)CO[C@@H]1CN(C)C(=O)Nc1ccnc(N2CCOCC2)c1	0	-2	1.4
COCC(=O)N1[C@@H](CO)[C@H](c2ccc(-c3ccccc3OC)cc2)C12CN(C(C)=O)C2	3	1	2.0
COC(=O)C[C@@H]1CC[C@H]2[C@H](COc3ccc(NC(=O)Cc4cccs4)cc3C(=O)N2C)O1	-3	-3	0.1
CCC(=O)NC[C@@H]1[C@H](c2ccccc2)[C@H](CO)N1C(=O)C1CCC1	-6	-3	-3.4
O=C1CN(Cc2ccc(F)cc2)C[C@H]2[C@@H](c3ccc(Br)cc3)[C@@H](CO)N12	-2	-12	10
CN(C)CC(=O)N1[C@@H]2Cn3c(ccc(-c4ccncc4)c3=O)[C@H]1[C@@H](C(=O)NC1CCC1)[C@@H]2CO	-4	-14	9.9
COc1cccc(CN2[C@@H](CO)[C@H](c3ccccc3)C23CN(C(=O)C2CCOCC2)C3)c1	4	0	4.6
CCCNC(=O)Nc1ccc2c(c1)C(=O)N(C)C[C@@H](OC)[C@@H](C)CN(C(=O)C1CCCCC1)[C@@H](C)CO2	-2	-3	1.3
CCC(=O)N1C[C@H]2[C@@H](c3ccccc31)[C@H](CO)N2Cc1ccccc1F	-3	-6	3.0
CO[C@H]1CN(C)C(=O)c2cc(C#N)ccc2OC[C@H]2O[C@@H](CC[C@H]2OC)CCN(C)C(=O)[C@H]1C	-3	-3	0.3
Cc1ccccc1S(=O)(=O)N1[C@H](C#N)[C@H](c2ccc(-c3ccc(F)cc3)cc2)[C@H]1CO	-4	-3	-1.0
CO[C@@H](C(=O)N(C)C[C@H]1OCc2ccccc2-c2ccccc2C(=O)N([C@H](C)CO)C[C@H]1C)c1ccccc1	-4	-4	-0.4
O=S(=O)(Cc1ccccc1)N1CCCCN2[C@H](CO)[C@H](c3ccc(-c4ccc(F)cc4)cc3)[C@H]2C1	2	-9	12
O=C(C[C@H]1CC[C@@H]2[C@H](COC[C@@H](O)CN2C(=O)c2cccnc2)O1)NC1Cc2ccccc2C1	7	8	-0.9
CCNC(=O)[C@H]1[C@H](CO)[C@H]2Cn3c(ccc(-c4cccnc4)c3=O)[C@@H]1N2Cc1ccccc1	6	6	-0.1
O=C(C[C@H]1C[C@@H]2c3cc(NC(=O)CC4CC4)ccc3O[C@@H]2[C@H](CO)O1)NCC1CC1	6	4	2.3
COc1ccc(S(=O)(=O)N[C@H]2CC[C@H](CCn3cc(-c4ccccc4F)nn3)O[C@@H]2CO)cc1	?	/	/
C/C=C/c1ccc([C@H]2[C@@H](CO)N(CCC)[C@H]2CN(CC)C(=O)c2ccccn2)cc1	-3	-2	-1.4

6 compounds picked at random from those above, as already listed:
SMILES	DUX4 inh	DUX4 inh difference	DUX4 inh control
O=C1CN(Cc2ccc(F)cc2)C[C@H]2[C@@H](c3ccc(Br)cc3)[C@@H](CO)N12	-2	-12	10
CO[C@@H](C(=O)N(C)C[C@H]1OCc2ccccc2-c2ccccc2C(=O)N([C@H](C)CO)C[C@H]1C)c1ccccc1	-4	-4	-0.4
Cc1ccccc1S(=O)(=O)N1[C@H](C#N)[C@H](c2ccc(-c3ccc(F)cc3)cc2)[C@H]1CO	-4	-3	-1.0
CN(C)CC(=O)N1[C@@H]2Cn3c(ccc(-c4ccncc4)c3=O)[C@H]1[C@@H](C(=O)NC1CCC1)[C@@H]2CO	-4	-14	9.9
COCC(=O)N1[C@@H](CO)[C@H](c2ccc(-c3ccccc3OC)cc2)C12CN(C(C)=O)C2	3	1	2.0
C[C@@H]1CN([C@@H](C)CO)C(=O)CCCn2cc(nn2)CO[C@@H]1CN(C)C(=O)Nc1ccnc(N2CCOCC2)c1	0	-2	1.4

Next structures follow.
SMILES	DUX4 inh	DUX4 inh difference	DUX4 inh control
CCCC#Cc1ccc([C@@H]2[C@H](CO)N3C(=O)CN(S(=O)(=O)Cc4ccccc4)C[C@@H]23)cc1	1	-4	4.8
CCC(=O)N1C[C@H](C)[C@H](OC)CN(C)C(=O)c2cc(NC(=O)NC3CCCC3)ccc2OC[C@@H]1C	4	2	2.5
C/C=C/c1ccc([C@@H]2[C@H](C#N)N(C(=O)NC3CCCCC3)[C@H]2CO)cc1	-1	0	-0.4
CCCNC(=O)Nc1ccc2c(c1)C(=O)N(C)[C@@H]1CC[C@@H](CC(=O)NCc3ccccc3)O[C@@H]1CO2	2	-1	3.6
COC(=O)C[C@H]1CC[C@H]2[C@@H](COc3ccc(NC(=O)C4CCOCC4)cc3C(=O)N2C)O1	2	1	0.9
CCCC(=O)Nc1ccc2c(c1)C(=O)N(C)[C@@H]1CC[C@H](CC(=O)NCc3cccc(F)c3)O[C@H]1CO2	-2	-3	1.5
C[C@@H]1CN([C@@H](C)CO)C(=O)CCCn2nncc2CO[C@@H]1CN(C)S(=O)(=O)c1ccc(C#N)cc1	-4	-6	2.2
COCC(=O)N1C[C@H](C)[C@@H](OC)CN(C)C(=O)c2cc(NC(=O)c3cnccn3)ccc2OC[C@@H]1C	8	2	6.1
Cn1cnc(S(=O)(=O)N2C[C@H](O)COC[C@@H]3O[C@H](CC(=O)NC4Cc5ccccc5C4)CC[C@H]32)c1	5	4	0.4
COc1ccc2c3c([nH]c2c1)[C@@H](CO)N(C(=O)Nc1ccc(F)cc1)CC31CN(C(=O)Nc2c(C)noc2C)C1	23	14	9.2
C[C@@H]1CN([C@@H](C)CO)C(=O)c2cc(C3=CCCCC3)cnc2O[C@H]1CN(C)Cc1ccccc1C(=O)O	2	0	2.0
O=C(C[C@@H]1CC[C@H]2[C@@H](COC[C@@H](O)CN2C(=O)Nc2ccccc2)O1)NCCCN1CCOCC1	3	7	-3.9
CO[C@@H]1CN(C)C(=O)c2ccc(NC(=O)Nc3ccccc3F)cc2OC[C@@H](C)N(Cc2ccccc2C(=O)O)C[C@H]1C	0	-2	1.8
CO[C@H]1CN(C)C(=O)c2cc(NC(=O)c3nc4ccccc4s3)ccc2OC[C@H](C)NC[C@H]1C	1	8	-7.1
O=C([C@@H]1[C@@H](CO)[C@@H]2Cn3c(ccc(-c4ccccc4)c3=O)[C@H]1N2)N1CCCCC1	-9	-7	-2.7
CC(C)(C)[S@@](=O)N1Cc2cc(C(=O)NCc3ccccc3F)nc(-c3cccc(-c4ccncc4)c3)c2[C@H]1CCO	-2	-1	-1.3
O=C(C[C@@H]1CC[C@H]2[C@@H](COC[C@H](O)CN2Cc2ccccc2F)O1)N[C@@H]1CCN(Cc2ccccc2)C1	-9	-10	0.5
Cc1ccc(S(=O)(=O)N[C@@H]2C=C[C@H](CC(=O)NCc3ccc(Cl)c(Cl)c3)O[C@H]2CO)cc1	-2	3	-5.1
O=C(NCc1ccncn1)[C@H]1[C@H](CO)[C@H]2Cn3c(ccc(-c4ccc(F)cc4)c3=O)[C@H]2N1CC1CC1	-1	2	-3.7
COc1cccc(-c2ccc(C3[C@@H]4CN(C(=O)Cc5ccncc5)C[C@H]3N4)cc2)c1 (stereo partly specified)	-10	-6	-3.6
O=C(C[C@H]1CC[C@H]2[C@@H](COC[C@@H](O)CN2CCC(F)(F)F)O1)NCC1CC1	5	-1	5.4
CO[C@H]1CN(C)C(=O)c2cc(NC(=O)NC(C)C)ccc2OC[C@H](C)N(C(=O)CN(C)C)C[C@H]1C	4	5	-1.2
O=C(C[C@@H]1CC[C@H]2[C@@H](COC[C@@H](O)CN2C(=O)c2ccc3c(c2)OCO3)O1)NC1CCC1	3	3	0.2
CC(=O)N1[C@@H]2Cn3c(ccc(C4=CCCCC4)c3=O)[C@H]1[C@@H](C(=O)NC1CCCC1)[C@@H]2CO	-1	2	-2.5
OC[C@@H]1[C@H](c2ccc(C3=CCCC3)cc2)[C@H]2CN(Cc3cccnc3)CCCCN12	2	-12	14
COc1ccc(S(=O)(=O)N(C)C[C@H]2Oc3ccc(NS(=O)(=O)c4c(C)noc4C)cc3C(=O)N([C@H](C)CO)C[C@@H]2C)cc1	-5	-8	2.7
CCCN1[C@H](C(=O)NCC)[C@@H](CO)[C@@H]2Cn3c(ccc(C4=CCCC4)c3=O)[C@@H]21	-3	-6	2.9
Cc1ccccc1-c1ccc(C2[C@@H]3CN(C(=O)c4ccc(F)cc4)C[C@H]2N3)cc1 (stereo partly specified)	?	-5	4.0
COc1ccc([C@@H]2C/C=C\C[C@H](c3ccc4c(c3)OCO4)NC(=O)CCC(=O)N2)c(OC)c1	9	9	0.5
CC(C)NC[C@@H]1[C@@H](c2ccc(C3=CCCCC3)cc2)[C@H](CO)N1C(=O)NC(C)C	4	2	1.9
CS(=O)(=O)Nc1ccc2c(c1)[C@H]1C[C@H](CC(=O)NCC(F)(F)F)O[C@H](CO)[C@H]1O2	10	6	3.6
CC(C)CC#Cc1ccc([C@@H]2[C@H]3CN(C(=O)NC4CCCCC4)CC(=O)N3[C@H]2CO)cc1	-9	-12	2.7
N#C[C@@H]1[C@@H](c2ccc(C3=CCCCC3)cc2)[C@H](CO)N1C(=O)CN1CCOCC1	1	0	0.8
O=C([C@@H]1[C@@H](CO)[C@@H]2Cn3c(ccc(/C=C/c4ccccc4)c3=O)[C@H]1N2)N1CCCCC1	-1	-4	3.2
O=C(NC[C@H]1N[C@H](CO)[C@@H]1c1ccccc1)c1ccccc1F	-7	-2	-4.6
CO[C@@H]1CN(C)C(=O)c2cc(NC(=O)NC3CCCCC3)ccc2OC[C@@H](C)N(CC2CCOCC2)C[C@H]1C	-1	-2	0.8
N#C[C@H]1[C@@H](c2ccc(C#CC3CCCC3)cc2)[C@H](CO)N1C(=O)Cc1ccccn1	1	2	-1.0
COc1ccc(S(=O)(=O)Nc2ccc3c(c2)CC(=O)N([C@H](C)CO)C[C@@H](C)[C@H](CN(C)S(=O)(=O)c2cn(C)cn2)O3)cc1	-2	-3	1.1
CCCNC(=O)N1C[C@@H](O)COC[C@H]2O[C@H](CC(=O)OC)CC[C@@H]21	12	7	4.8
COc1ccc(C(=O)Nc2ccc3c(c2)C(=O)N(C)C[C@@H](OC)[C@H](C)CN(C)[C@@H](C)CO3)cc1	-5	0	-4.9

4 successive compounds from above, for reference:
SMILES	DUX4 inh	DUX4 inh difference	DUX4 inh control
N#C[C@H]1[C@@H](c2ccc(C#CC3CCCC3)cc2)[C@H](CO)N1C(=O)Cc1ccccn1	1	2	-1.0
COc1ccc(S(=O)(=O)Nc2ccc3c(c2)CC(=O)N([C@H](C)CO)C[C@@H](C)[C@H](CN(C)S(=O)(=O)c2cn(C)cn2)O3)cc1	-2	-3	1.1
CCCNC(=O)N1C[C@@H](O)COC[C@H]2O[C@H](CC(=O)OC)CC[C@@H]21	12	7	4.8
COc1ccc(C(=O)Nc2ccc3c(c2)C(=O)N(C)C[C@@H](OC)[C@H](C)CN(C)[C@@H](C)CO3)cc1	-5	0	-4.9

(list continues)
SMILES	DUX4 inh	DUX4 inh difference	DUX4 inh control
CO[C@@H]1CN(C)C(=O)c2ccc(NC(=O)NC(C)C)cc2OC[C@H](C)N(CC2CC2)C[C@H]1C	-5	-8	2.9
COCC(=O)Nc1ccc2c(c1)[C@@H]1C[C@@H](CC(=O)NCCc3ccccc3)O[C@@H](CO)[C@@H]1O2	7	-1	8.5
C[C@H]1CN([C@@H](C)CO)S(=O)(=O)c2ccc(Br)cc2O[C@@H]1CN(C)C(=O)Nc1ccc2c(c1)OCO2	-3	-5	2.4
CCC(=O)N[C@@H]1C=C[C@H](CC(=O)OC)O[C@H]1CO	2	1	0.5
CCc1cnc(N2[C@@H](C#N)[C@H](c3ccccc3)[C@@H]2CO)s1	1	1	0.9
CC(C)NC[C@@H]1[C@H](c2ccc(C3=CCCCC3)cc2)[C@H](CO)N1C(=O)NC(C)C	1	-2	2.3
COc1ccc(S(=O)(=O)Nc2ccc3c(c2)C(=O)N([C@H](C)CO)C[C@H](C)[C@H](CN(C)C(=O)Nc2c(C)noc2C)OCCCC[C@@H](C)O3)cc1	4	5	-0.6
CN1c2ccc(-c3ccccc3F)cc2[C@H]2[C@H](CCN2S(=O)(=O)c2ccccc2)[C@@H]1CO	12	6	5.4
CCCNC(=O)N1[C@@H](CO)[C@@H]2c3ccccc3N(C(=O)Nc3cccc(Cl)c3)C[C@@H]21	-3	-7	3.5
O=C(C1CCCC1)N1CC2(C1)[C@H](c1ccccc1)[C@@H](CO)N2CCC(F)(F)F	1	-1	1.4
CCCN1C[C@@H](C)[C@H](OC)CN(C)C(=O)c2cc(NC(=O)NC3CCCCC3)ccc2OC[C@@H]1C	-7	-5	-1.5
COc1ccc2c3c([nH]c2c1)[C@@H](CO)N(S(C)(=O)=O)CC31CCN(C(=O)c2cccnc2)CC1	16	2	14
COCC(=O)N1CCCCN2[C@H](CO)[C@H](c3ccc(-c4ccc(F)cc4)cc3)[C@H]2C1	0	7	-7.6
C[C@@H](O)C#Cc1ccc([C@@H]2[C@H](CO)N3CCCCN(S(=O)(=O)c4ccccc4)C[C@@H]23)cc1	10	13	-3.3
CCN1[C@@H]2c3ccc(C4=CCCCC4)c(=O)n3C[C@H]1[C@H](CO)[C@H]2C(=O)NCc1ccccn1	4	6	-1.6
CCCNC(=O)N1CC2(C1)[C@H](c1ccccc1)[C@H](CO)N2C(=O)C1CCCC1	2	3	-0.7
O=C(NC[C@@H]1[C@@H](c2ccccc2)[C@@H](CO)N1Cc1cccnc1)c1ccccn1	0	2	-2.3
CO[C@@H]1CN(C)C(=O)c2ccc(NC(=O)C3CC3)cc2OC[C@@H](C)N(Cc2cncnc2)C[C@@H]1C	-7	-7	-0.2
COc1ccc(-c2ccc([C@@H]3[C@@H](CO)N4C(=O)CN(C(=O)Cc5ccccn5)C[C@@H]34)cc2)cc1	3	0	3.4

Source: PubChem BioAssay

The list is partial; the hit share may differ from the screen's.
